Mtb MenB inh = M. tuberculosis MenB inhibitors, primary screen, biochemical, absorbance. 1,4-dihydroxy-2-naphthoyl-CoA synthase (Mycobacterium tuberculosis (strain ATCC 25618 / …. MenB enzyme assay, absorbance read-out; some hits fall short of the stated cut. inhibition, %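 (about 12 µg/mL by stock and volumes)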. hit rate 0.43% among 100,000. AID 540299, 2011;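 active means mean of two replicates above 30%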;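 further: 0% = no compound and 100% = wells with inactive enzyme; the first replicate is given; strong numbers were not always called active; inactives centre near -10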
Target sequence (P9WNP5 whole entry, looked up): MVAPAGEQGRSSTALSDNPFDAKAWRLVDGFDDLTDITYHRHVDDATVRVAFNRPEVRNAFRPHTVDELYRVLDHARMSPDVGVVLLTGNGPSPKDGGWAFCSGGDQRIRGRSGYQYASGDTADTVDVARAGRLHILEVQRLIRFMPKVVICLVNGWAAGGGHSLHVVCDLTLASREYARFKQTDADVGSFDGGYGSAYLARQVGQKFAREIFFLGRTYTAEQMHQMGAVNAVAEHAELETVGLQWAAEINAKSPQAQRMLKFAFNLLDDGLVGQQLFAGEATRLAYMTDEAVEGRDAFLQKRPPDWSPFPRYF
MbtI inh = MbtI salicylate synthase inhibitors, primary screen, biochemical, fluorescence intensity; hit rate 0.89% among 100,000; inhibition, %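 (about 17 µg/mL by stock and volumes)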; P9WFX0; purified MbtI enzyme, fluorescence intensity read-out;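 active means above 50% in both replicates, above 80% if mildly self-fluorescent; inactive means the rest, strongly fluorescent compounds included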;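 further: 0% = mean of negative and 100% = mean of positive controls; one replicate is shown; some compounds called inactive have numbers as strong as hits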
Target sequence (P9WFX0 whole entry, looked up): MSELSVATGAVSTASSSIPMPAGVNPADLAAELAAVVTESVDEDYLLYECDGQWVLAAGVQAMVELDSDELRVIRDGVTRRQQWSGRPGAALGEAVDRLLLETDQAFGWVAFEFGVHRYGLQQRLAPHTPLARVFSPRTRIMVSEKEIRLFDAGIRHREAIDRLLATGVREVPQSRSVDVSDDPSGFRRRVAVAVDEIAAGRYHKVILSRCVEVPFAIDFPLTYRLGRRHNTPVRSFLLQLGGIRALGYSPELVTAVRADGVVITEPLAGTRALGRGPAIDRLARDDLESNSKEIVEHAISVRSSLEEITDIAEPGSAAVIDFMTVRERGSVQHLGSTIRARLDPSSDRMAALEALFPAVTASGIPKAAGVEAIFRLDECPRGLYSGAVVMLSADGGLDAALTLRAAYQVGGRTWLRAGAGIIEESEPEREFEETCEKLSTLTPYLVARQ
Polio RdRp inh = poliovirus RdRp elongation inhibitors, primary screen, biochemical, fluorescence polarization, total intensity; Genome polyprotein (Poliovirus type 1 (strain Mahoney)), P03300; poliovirus polymerase elongation; stronger effect = lower value; % elongation, % (compound at 16.7 µg/mL); hit rate 0.66% among 150,000; in the data active means % elongation below about 90%; further: some results filed as inactive read as strong as hits
Polio RdRp inh intensity = recorded beside Polio RdRp inh, whose call it bears; % elongation; measured here: total intensity read-out; formula for this scale not given here;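 total fluorescence in place of polarization; lower means less elongation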
* hit, by the source's call; . = not tested or not shown.

Below each SMILES – Mtb MenB inh	MbtI inh	Polio RdRp inh	Polio RdRp inh intensity
(1) COc1ccc2c(c1)C(O)c1ccccc1CO2 (stereo not given)
 : -45	.	102	103
(2) COC(=O)c1cc2ccsc2n1Cc1ccccc1
 : -16	-4	104	107
(3) CNC(=S)N(Cc1nnc(-c2ccc(Cl)cc2)o1)C1CCCC1
 : -28	-2	104	110
(4) S=C(Nc1ccc(Cl)cc1)N1CCN(C2CCCCC2)CC1
 : -33	1	101	99
(5) COC(=O)C(NS(=O)(=O)c1ccc(NC(C)=O)cc1)C(C)C (stereo not given)
 : -29	-2	103	103
(6) COCCNCC1C(Oc2ccc(Cl)cc2)C(=O)N1c1ccc(C)cc1 (stereo not given)
 : -20	4	98	101
(7) Cc1cc(C(=O)O)c2ccccc2n1
 : .	0	100	98
(8) Clc1ccc(CN2CCN(Cc3ccccc3)CC2)cc1
 : -63	-12	102	101
(9) CC(C)COc1ccc(C(CC(=O)O)C(=O)O)cc1 (stereo not given)
 : -18	8	101	102
(10) Cc1ccnc(S/C=C/C(=O)c2ccc(I)cc2)n1
 : -15	16	102	95
(11) CCOC(=O)N1CCN(C(=O)c2ccc3c(c2)N(Cc2ccccc2)CCS3)CC1
 : -5	-10	101	101
(12) CC1CCCC(C)N1CCNC(=O)c1ccc2c(c1)ncn2C1CCCCC1 (stereo not given)
 : 0	-4	99	103
(13) COc1cccc(NC(=O)C=C(C)C)c1
 : -28	-6	103	103
(14) O=C(CS(=O)CC(=O)Nc1cccc2c1CCCC2)Nc1ccc(F)cc1 (stereo not given)
 : 8	1	99	99
(15) N#CCSc1nc(-c2cccnc2)ccc1C(=O)O
 : -1	-10	104	103
(16) CN1CCC(NC2C3CC4CC(C3)CC2C4)CC1 (stereo not given)
 : -13	-5	100	102
(17) CC(C)(C)c1ccc(C(=O)Nc2cc(-c3ccccc3)no2)cc1
 : -30	18	101	99
(18) Cc1cccc(NC(=O)C(O)C(O)C(=O)Nc2cccc(C)c2)c1 (stereo not given)
 : -17	-5	102	100
(19) CCN(CC)S(=O)(=O)c1ccc(/C=C/C(=O)NC2CCCCC2)cc1
 : .	-2	105	98
(20) COc1cc(C2SC(C)C(=O)N2CCc2ccccc2)cc(OC)c1OC (stereo not given)
 : -13	6	104	106
(21) CN1CCN(C(=O)Cn2nc(-c3ccccc3)c3ccccc3c2=O)CC1
 : -3	11	102	103
(22) O=C(CNC(=O)C1CCCCC1)Nc1nc2ccccc2[nH]1
 : -6	-3	103	111
(23) CCCNC(=O)Nc1ccc2c(c1)N(CC)C(=O)c1ccccc1S2
 : -5	-9	105	107
(24) O=C(NCCSc1nnnn1-c1ccccc1)c1ccc(Cl)cc1
 : -5	-8	101	103
(25) CC(C)(C)S(=O)(=O)c1ccsc1S(C)(=O)=O
 : 8	-12	102	103
(26) CSc1c(C#N)c(-c2ccc(Cl)cc2)nn1C(=O)c1cccs1
 : -4	-5	103	113
(27) Cc1ccc(S(=O)(=O)N(/C(N)=N/c2nc(C)cc(C)n2)c2ccc(C)c(C)c2)cc1
 : -20	-2	105	106
(28) O=C1C(=O)N(CC2CCCO2)C(c2ccccc2)/C1=C(/O)c1ccccc1 (stereo not given)
 : 0	-16	103	102
(29) O=C(NCC(c1ccccc1)c1c[nH]c2ccccc12)c1ccc(C(F)(F)F)cc1 (stereo not given)
 : -13	-8	103	111
(30) COc1ccc2c(c1)nc(CN1CCN(C)CC1)n2C
 : -7	0	100	98

Next section (2 carried over from the part before).
Below each SMILES – Mtb MenB inh	MbtI inh	Polio RdRp inh	Polio RdRp inh intensity
(29) O=C(NCC(c1ccccc1)c1c[nH]c2ccccc12)c1ccc(C(F)(F)F)cc1 (stereo not given)
 : -13	-8	103	111
(30) COc1ccc2c(c1)nc(CN1CCN(C)CC1)n2C
 : -7	0	100	98
(31) COc1ccc(NC(=O)C2CC2)cc1OC
 : -13	-14	101	103
(32) CCS(=O)(=O)c1ccc2oc(=S)n(CN(C)Cc3ccccc3)c2c1
 : 3	17	100	105
(33) Cc1cnc(=O)[nH]c1SCc1cccc2ccccc12
 : -17	10	101	105
(34) CCOC(=O)c1ccc(NCc2nc(N)nc(Nc3ccccc3C)n2)cc1
 : -16	-36	120	124
(35) O=C(COc1ccc(Cl)cc1)NCc1nnc(SCC(=O)NCc2ccco2)o1
 : -10	-3	101	104
(36) COc1cc(OC)cc(C(=O)NC(=S)Nc2cccc(-c3nc4ccccc4o3)c2C)c1
 : -16	-30	103	108
(37) CC(NCCN1CCOCC1)C(=O)NC1CCCCC1 (stereo not given)
 : 35*	-3	100	110
(38) CCN1CCN(C(=O)c2ccccc2SC)CC1
 : 1	-16	100	101
(39) C/C(=N\N(C=O)c1ccc(C(=O)O)cc1)C(=O)c1ccccc1
 : -141	0	98	107
(40) O=C(OCCOc1ccc(Br)cc1)c1ccc2c(=O)n3c(nc2c1)CCC3
 : -10	71	101	107
(41) Cc1noc(C)c1CCNC(=O)c1[nH]nc2c1CCc1ccccc1-2
 : -10	100	99	100
(42) Cc1ccc(Cc2nnc(C(=O)NCCCN3CCC(Cc4ccccc4)CC3)o2)cc1
 : -10	5	100	100
(43) COc1ccccc1CN1C(=O)c2ccccc2C1C(=O)NCCCN1C(C)CCCC1C (stereo not given)
 : -1	-7	101	103
(44) COc1cc(OC)c(NS(=O)(=O)c2ccc(C)c(C(=O)Nc3nn[nH]n3)c2)cc1Cl
 : -3	7	98	95
(45) C=CCN(CC=C)C(=O)C(C)Oc1ccc(Cl)cc1Cl (stereo not given)
 : -15	-9	100	101
(46) COc1cnc(SC)n(C)c1=O
 : -1	.	105	104
(47) CCCn1c(=O)c2ccccc2n2c(SCC(=O)Nc3c(C)cc(C)cc3Cl)nnc12
 : -32	13	101	99
(48) NS(=O)(=O)c1cc2c(cc1Cl)NC(CC1CCCC1)NS2(=O)=O (stereo not given)
 : -4	-16	99	102
(49) CC(=O)c1ccc2c(c1)N(CCCN1CCC(CCO)CC1)c1ccccc1S2
 : 6	7	100	103
(50) Cc1csc(-c2cc3c(ccc4ccccc43)oc2=O)n1
 : .	-46	104	106
(51) COc1ccc(Nc2nc3nonc3nc2N2CCCCCC2)cc1
 : -15	.	103	103
(52) CN(C(=O)COC(=O)c1cccc(N2C(=O)c3ccccc3C2=O)c1)C1CCS(=O)(=O)C1 (stereo not given)
 : 6	8	102	106
(53) N/C(=N/O)c1cnc2n(c1=O)CCS2
 : -1	6	107	113
(54) Cc1ccc(N2CCN(c3ccc(C)cc3)C2c2cccs2)cc1
 : -38	3	101	106
(55) CCOc1ccccc1NC(=O)CSc1nncn1C(C)C
 : -7	13	.	.
(56) N#Cc1ccccc1NC(=O)COC(=O)C1(c2cccc(F)c2)CCCC1
 : .	-4	97	99
(57) O=C(NCC1(c2ccccc2)CCCC1)c1cc2c(=O)[nH]c3ccccc3c2s1
 : -17	-16	102	106
(58) CCc1ccc(NC(=O)/C=N/O)cc1
 : .	-4	102	101
(59) COC(=O)c1cc(S(=O)(=O)NCCCN2CCN(c3ccccc3)CC2)c[nH]1
 : -16	1	100	101
(60) Cc1ccc2c(c1)c1c3n2CCN(CCC(=O)O)C3CCC1 (stereo not given)
 : -2	45	101	102

Later entries.
Below each SMILES – Mtb MenB inh	MbtI inh	Polio RdRp inh	Polio RdRp inh intensity
(61) COc1nc(N)c(C#N)c(-c2ccc(C)cc2)c1C#N
 : 20	78	102	103
(62) O=C(CSc1nnc(-c2ccco2)n1C1CCCCC1)N1CCNC1=O
 : -13	12	103	92
(63) COC(=O)c1ccc(COc2cccc(Cl)c2)o1
 : 1	-8	104	110
(64) Nc1ccc(N2CCCCC2)c(C(F)(F)F)c1
 : -64	90	104	103
(65) O=C(CC1=NS(=O)(=O)c2ccccc2N1)Nc1ccccc1
 : -16	-13	102	101
(66) Cc1ccc(NC(=O)c2oc3ccccc3c2NC(=O)C2CC2)cc1C
 : -1	27	101	101
(67) CC(C)CCn1c(=O)c2cccnc2n(CC(N)=O)c1=O
 : -9	118	102	103
(68) Nc1ccc(-n2nncc2C23CC4CC(CC(C4)C2)C3)cc1
 : -11	-3	99	100
(69) CCOC(=O)CCN1C(=O)CN(C)CC1=O
 : 4	2	100	105
(70) O=C(NCc1cc(F)cc2c1OCOC2)c1cnc2ccccc2n1
 : -23	-6	102	100
(71) CSc1c(C#N)c(-c2ccc(Cl)cc2)nn1C
 : 3	1	101	100
(72) Clc1ccc(-c2noc3ncnc(NC4CCCC4)c23)cc1
 : -5	-5	102	102
(73) COc1ccc(NC(C)=O)cc1NC(C)C(=O)NC(C)c1ccc(F)cc1 (stereo not given)
 : -13	-4	105	107
(74) O=C(CN1CCCC1c1cccs1)NC(=O)Nc1ccccc1 (stereo not given)
 : -9	-4	105	108
(75) COc1ccc(C(C(=O)NC2CCCC2)N(C(=O)c2ccco2)c2ccc(NC(C)=O)cc2)cc1OC (stereo not given)
 : 3	0	105	102
(76) Cc1ccc(Nc2nn(CN3CCOCC3)c(=S)s2)cc1
 : -37	90*	102	104
(77) COc1cccc(OC)c1C(=O)Nc1ccc2c(c1)CCCN2C(=O)C1CC1
 : -3	2	103	101
(78) Cc1cc(CNC(=O)Nc2c(C)noc2C)c(C(F)(F)F)o1
 : 8	-12	103	107
(79) Cc1[nH]c2ccccc2c1C(=O)COC(=O)C1CCC(=O)N1 (stereo not given)
 : .	0	103	103
(80) CNC(=O)c1c(-c2ccccc2)oc2ccc(OC)cc12
 : -1	90	103	103
(81) CC(C)c1ccc(S(=O)(=O)N2CCN(C(=O)c3cc(-c4ccccc4)n[nH]3)CC2)cc1
 : -9	4	99	101
(82) CCOC(=O)c1sc(NC(=O)C=C(C)C)c(C#N)c1C
 : -19	19	101	102
(83) NC(=O)NC(=O)CC1Sc2ccccc2NC1=O (stereo not given)
 : -17	-8	98	102
(84) CCCCN(C(=O)CN1CCc2ccccc21)c1c(N)n(Cc2ccccc2)c(=O)[nH]c1=O
 : -1	-7	137	168
(85) CC1Cc2ccccc2N1C(=O)/C=C/c1cn[nH]c1-c1cc2ccccc2o1 (stereo not given)
 : -55	8	103	97
(86) COc1cc(C(F)(F)F)nc2ccc(C)c(NC(=O)Nc3ccc(OC(F)(F)F)cc3)c12
 : 2	20	105	98
(87) O=C(O)c1ccc2c(=O)nc3n(c2c1)Cc1ccccc1-3
 : .	-11	102	108
(88) CC1CCCC(C)N1C(=O)/C(C#N)=C/c1ccc2c(c1)OCO2 (stereo not given)
 : -3	-2	105	112
(89) COc1ccccc1CNC(=O)C(C)Oc1ccccc1 (stereo not given)
 : -11	.	108	114
(90) O=S1(=O)N=C2CCCCCN2C(CSc2nnc(CN3CCCCC3)n2Cc2ccccc2)N1 (stereo not given)
 : -4	27	105	100

Complete entries, looked up by structure.
`COc1nc(N)c(C#N)c(-c2ccc(C)cc2)c1C#N` in the list: Mtb MenB inh = 20; MbtI inh = 78; Polio RdRp inh = 102; Polio RdRp inh intensity = 103
`COc1ccc(C(C(=O)NC2CCCC2)N(C(=O)c2ccco2)c2ccc(NC(C)=O)cc2)cc1OC` (stereo not given) in the list: Mtb MenB inh = 3; MbtI inh = 0; Polio RdRp inh = 105; Polio RdRp inh intensity = 102

(next part)
Below each SMILES – Mtb MenB inh	MbtI inh	Polio RdRp inh	Polio RdRp inh intensity
(91) Cc1ccc(CCP(=O)(O)CCC(=O)O)cn1
 : 1	-6	98	101
(92) CSc1nc2ccccc2n1CCO
 : -11	-5	102	96
(93) OCCN1CCSC1=Nc1cccc2ccccc12
 : -36	-100	99	106
(94) COc1ccc(-n2c(SC(C)C#N)nc3ccccc32)cc1 (stereo not given)
 : -3	0	120	134
(95) CCC(=O)N1CCc2cc(Br)cc(S(=O)(=O)N3CCC(C(=O)NCc4ccc(C)o4)CC3)c21
 : -18	2	101	100
(96) O=C(CSc1nc2cc(Cl)ccc2o1)NCC(F)(F)F
 : -21	-3	102	94
(97) CCOC(=O)c1c(C)oc2nc(C)nc(NCc3ccc(CN4CCCCC4CC)o3)c12 (stereo not given)
 : -12	-15	102	103
(98) CCN(CC)c1nc2ccccc2nc1C(C#N)C(=O)NCCc1ccccc1 (stereo not given)
 : -17	-12	.	.
(99) c1ccc2c(c1)NC(c1ccc3nsnc3c1)c1cccn1-2 (stereo not given)
 : 13	9	99	107
(100) Cc1cc(C)cc(NC(=O)NN2C(C)CCCC2C)c1 (stereo not given)
 : -1	-2	102	101
(101) O=S(=O)(c1ccc2c(c1)OCCCO2)N1CCN(Cc2ncc(-c3ccccc3)o2)CC1
 : -18	-7	103	109
(102) O=S(=O)(NCC1CCCO1)c1cccc(C(F)(F)F)c1 (stereo not given)
 : -18	-4	101	108
(103) O=C(N/N=C/c1ccc2c(c1)OCO2)c1ccccc1
 : -23	31	101	101
(104) CN(C)S(=O)(=O)c1ccc(=O)n(Cc2ccc(-n3ccnc3)cc2)c1
 : -13	10	99	99
